# KCNQ2 block = KCNQ2 potassium channel inhibitors, primary screen, cell-based, CHO-K1, FluxOR thallium flux, B-score (AID 2156); 1.1% of 310,000 active; 20 min; hits give low values; only compounds with negative scores are shown here; some inactives read as strong as hits; B-score at 10 µM;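 active = fluorescence ratio B-score at most minus 3 library SDs, with starting brightness B-score within 2 library SDs, cut at about -5.5 in these data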
# Target sequence (O88943 whole entry, looked up): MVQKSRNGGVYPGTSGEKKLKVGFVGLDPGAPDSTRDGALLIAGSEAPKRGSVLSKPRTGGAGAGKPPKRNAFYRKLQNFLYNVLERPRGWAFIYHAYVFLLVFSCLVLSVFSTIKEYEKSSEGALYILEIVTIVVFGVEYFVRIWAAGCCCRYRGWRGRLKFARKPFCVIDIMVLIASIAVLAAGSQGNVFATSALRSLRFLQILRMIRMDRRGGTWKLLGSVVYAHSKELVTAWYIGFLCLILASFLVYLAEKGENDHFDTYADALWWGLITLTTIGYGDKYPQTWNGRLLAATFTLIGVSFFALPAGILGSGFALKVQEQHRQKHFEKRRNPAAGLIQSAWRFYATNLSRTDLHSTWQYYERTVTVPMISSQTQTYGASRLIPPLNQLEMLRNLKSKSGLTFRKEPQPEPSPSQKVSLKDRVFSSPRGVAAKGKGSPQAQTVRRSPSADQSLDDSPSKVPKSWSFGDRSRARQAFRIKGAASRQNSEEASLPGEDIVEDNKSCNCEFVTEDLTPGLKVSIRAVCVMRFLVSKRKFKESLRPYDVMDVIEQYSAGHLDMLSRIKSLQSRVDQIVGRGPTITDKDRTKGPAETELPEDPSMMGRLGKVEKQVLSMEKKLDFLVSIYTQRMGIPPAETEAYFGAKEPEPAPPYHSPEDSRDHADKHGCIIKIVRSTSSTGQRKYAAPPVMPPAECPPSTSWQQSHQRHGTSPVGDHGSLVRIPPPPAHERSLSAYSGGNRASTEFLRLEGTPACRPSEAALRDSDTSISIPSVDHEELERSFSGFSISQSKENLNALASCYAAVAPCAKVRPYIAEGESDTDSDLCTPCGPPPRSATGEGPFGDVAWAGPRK
# KCNQ2 block baseline = recorded beside KCNQ2 block, whose call it bears; B-score; measured here: initial fluorescence intensity artifact check;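 brightness before thallium and not channel activity; 0 = typical well and far values either way flag optical interference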
# Active calls of the source: *; i = inactive; & = joins results of further samples. This is a subset, so the mix of outcomes need not match the whole.
KCNQ2 block | KCNQ2 block baseline | Molecule
i | -0.69 | CCCN1CC(O)=C(C#N)C1=O
i | 2.77 | Cc1ccc(Cl)cc1N1CCN(S(=O)(=O)c2c(C(=O)N3CCOCC3)c(C)n(C)c2C)CC1
i | 0.16 | COc1cccc(CN(C)CC(=O)Nc2cccc3ccccc23)c1
i | -1.95 | Cc1c(-c2cccc(Cl)c2)nc2ccccc2c1C(=O)OCC(=O)Nc1ccc2c(c1)OCO2
i | 0.42 | CCOC(=O)C1C(=O)CC(C)(O)C(C(=O)OCC)C1c1ccccc1OC (stereo not given)
i | 0.05 | CCC(C)(C)NC(=O)CN(C(=O)CCC(=O)Nc1nccs1)c1cccc(C)c1C
i | -2.07 | O=C1C(=O)N(CCN2CCOCC2)C(c2ccccn2)/C1=C(/O)c1ccc(Cl)cc1 (stereo not given)
i | 1.87 | CCc1ccc(NC(=O)Nc2cc(C(=O)NCC3CCCO3)ccc2N2CC3CC(C2)c2cccc(=O)n2C3)cc1 (stereo not given)
i | 0.23 | COc1ccc(NC2CCCN(C(=O)C3(C)CCCCC3)C2)cc1OC (stereo not given)
i | 0.84 | Cc1cc(-c2n[nH]c(=S)n2/N=C/c2cccc([N+](=O)[O-])c2)n[nH]1
i | -0.37 | CN(C)c1ccc(CC(=O)c2nc3ccccc3s2)cc1
i | 2.59 | Cc1onc(-c2c(Cl)cccc2Cl)c1C(=O)N1CCN(c2ccc(F)cc2)CC1
i | 1.66 | CCNS(=O)(=O)c1ccc(CCC(=O)Nc2ccc3c(c2)OCO3)cc1
i | -0.56 | Cc1c(C(=O)N2CCN(c3ccccn3)CC2)oc2c1C(=O)CC(C)(C)C2
i | 3 | COc1ccc(-c2nnc(NC(=O)Cc3ccccc3)o2)cc1
i | 0.04 | CCN1CCN(C(=S)NC(C)c2ccccc2)CC1 (stereo not given)
i | 1.44 | O=C(NCCN1CCOCC1)c1cc(-c2ccccc2)on1
i | -0.48 | Cc1ccc(C)c(NC(=O)C2CC3c4ccccc4C2c2ccccc23)c1 (stereo not given)
i | 0.46 | Clc1ccc2scc(CN3CCCCC3)c2c1
i | -0.02 | Cc1c(-c2cccc(Cl)c2)nc2ccccc2c1C(=O)NC1CC1
i | -0.43 | Cc1ccc(/C=C2\Sc3ccccc3C2=O)s1
-7.07* | 0.8* | CCc1ccc(-c2cc(C(=O)NCc3ccco3)c3ccccc3n2)s1
i | -1.19 | C/C=C(\C)CN1CCN(c2ccc(C)cc2)CC1
i | -0.46 | COc1cc(C2CC(=O)C3=C(C2)Nc2ncnn2C3c2cccs2)cc(OC)c1OC (stereo not given)
i | -0.65 | O=C(CSc1nc2ccc(N3CCOCC3)cc2c(=O)n1CCc1ccccc1)NCC1CCCO1 (stereo not given)

# Part of the list above in order of heavy-atom count, largest number first.
KCNQ2 block | KCNQ2 block baseline | Molecule
i | -1.95 | Cc1c(-c2cccc(Cl)c2)nc2ccccc2c1C(=O)OCC(=O)Nc1ccc2c(c1)OCO2
i | 3 | COc1ccc(-c2nnc(NC(=O)Cc3ccccc3)o2)cc1
i | 1.44 | O=C(NCCN1CCOCC1)c1cc(-c2ccccc2)on1

# Returning to the listing, repeating the 2 entries before the break.
KCNQ2 block | KCNQ2 block baseline | Molecule
i | -0.46 | COc1cc(C2CC(=O)C3=C(C2)Nc2ncnn2C3c2cccs2)cc(OC)c1OC (stereo not given)
i | -0.65 | O=C(CSc1nc2ccc(N3CCOCC3)cc2c(=O)n1CCc1ccccc1)NCC1CCCO1 (stereo not given)
i | 1.9 | COC1=C/C(=C/c2c(N)n3nc(CC(=O)N4CCOCC4)sc3nc2=O)C=CC1=O
-6.66* | -0.04* | COc1ccc(C(C)=O)cc1CSc1nc2ccccc2c(=O)n1-c1cccc(C)c1
i | 0.73 | CC(C(=O)NC1CCCC1)N(C(=O)Cn1nnc(-c2ccc(F)cc2)n1)c1ccccc1F (stereo not given)
i | -0.12 | CCS(=O)(=O)c1ccc2c(c1)N(S(C)(=O)=O)CC(C(=O)NCCOC)O2 (stereo not given)
i | -1.51 | O=C(NNC(=O)c1cc2cc3ccccc3nc2s1)c1cccc(Cl)c1
i | -0.67 | COc1ccc(NC(=O)NC2(C)CCS(=O)(=O)C2)cc1 (stereo not given)
i | -0.22 | Cc1ccc(C(=O)OCc2cn(-c3ccccc3)nn2)cc1
i | -0.01 | COC(=O)c1sccc1-n1cccc1C(=O)C(=O)Nc1ccc(F)cc1
i | 0.6 | Cc1ccc(C(=O)NC(N(C)C)C(Cl)(Cl)Cl)cc1 (stereo not given)
i | -1.89 | Cc1ccc(S(=O)(=O)NN2C(=O)c3ccccc3NC2c2ccccc2O)cc1 (stereo not given)
i | 0.18 | CCOCCCNC(=O)CN1C(=O)COc2ccc(S(=O)(=O)N3CCCCCC3)cc21
i | 1.5 | CC(C)(C)OC(=O)CNC(=O)c1[nH]cnc1C(=O)Nc1ccc(Cl)cc1
i | -0.03 | CCCc1c(C(=O)Nc2ccc(OC)cc2)cnn1-c1ccccc1
i | -1.86 | COCc1nnc(NC(C)=O)s1
i | 0.99 | O=C(Nc1ccccc1F)c1ccncc1
i | -2.14 | O=C(O)c1ccc(/C=N/NC(=O)c2ccc(Br)cc2)cc1
i | 0.77 | Cc1ccc(-n2c(=O)c3sccc3n(Cc3cc(=O)n4ccccc4n3)c2=O)cc1
i | -0.72 | C[C@H](NC(=O)c1nc[nH]c1C(=O)NC1CCNCC1)C(=O)OC(C)(C)C
i | 0.47 | Cn1nnnc1SCC(=O)Nc1ccccc1Br
-10.8* | 0.21* | C=CCn1c(SCC(=O)c2cc(C)n(C(C)COC)c2C)nc2sc(C)c(C)c2c1=O (stereo not given)
i | 0.08 | CC(C)C1=NN2C(=N)CC(=O)N=C2S1
i | 0.44 | COc1ccccc1CCNC(=O)CNC(=O)c1ccc2ccccc2c1
i | 0.41 | Cc1sc2nc(SCC(=O)NCCO)n(-c3ccccc3)c(=O)c2c1C
i | 1.58 | O=C(Nc1ccc(NC(=O)c2cccs2)cc1)c1ccc2c(c1)OCCO2
i | -0.99 | O=C(NCC1CCCO1)c1ccc(Br)o1 (stereo not given)
i | -1.22 | Cc1ccc(NC(=O)c2cc(-c3ccc(C)c(C)c3O)n[nH]2)cc1C
i | 0.64 | Cc1ccc(C2/C(=C(/O)c3cnn(-c4ccccc4)c3C)C(=O)C(=O)N2CCCN2CCOCC2)o1 (stereo not given)
i | -1.9 | O=C1NCCCN1Cc1ccc(Cl)cc1
i | 0.28 | CCOC(=O)c1cc(-c2csc(COc3ccccc3Cl)n2)on1
i | -1.91 | CC1CN(c2ccccc2)CCN1Cc1nc(Cc2ccccc2)no1 (stereo not given)
i | 0.24 | Cc1ccc(C)n1-c1ncn[nH]1
i | 1.25 | Cc1csc2nc(CNS(=O)(=O)c3ccc4c(c3)CCCC4)cn12
i | 1.28 | CC(CN(C)Cc1nc(Cc2cccc(C(F)(F)F)c2)no1)CN1CCCC1 (stereo not given)
i | 0.53 | O=C(O)CCN1C(=O)c2ccc(NC(=O)Cc3ccc(Cl)cc3)cc2C1=O
i | 0.47 | COc1ccc(S(=O)(=O)NCCSCc2ccccc2C)cc1Br
i | -0.74 | CCN(CC)CCn1c(=N)n(CC(O)COc2ccccc2)c2ccccc21 (stereo not given)
i | 1.04 | Cc1ccc(CN2CCN(Cc3ccccc3)C(CCO)C2)s1 (stereo not given)
i | 0.77 | CCc1nn(CC(=O)N2CCC(C(N)=O)CC2)c(=O)c2cc3occc3n12
i | 0.22 | CC(C)N1CC(C(=O)O)CC1=O (stereo not given)
i | 2.11 | CCCc1nc2sc3c(SCC(=O)NCc4ccco4)ncnc3c2c2c1CCC2
i | 0.71 | COc1ccccc1NC(=O)Oc1ccc(C(C)=O)cc1
i | 0.41 | CCOc1ccc(-c2ccc(SCC(=O)N3CCN(c4ccccc4)CC3)nn2)cc1
i | 1.37 | CCC1CCCCN1C(=O)c1cc2cc(Br)ccc2oc1=O (stereo not given)
i | 0.44 | CC1CN(C(=O)c2cccc(COc3ccccc3Cl)c2)CC(C)O1 (stereo not given)
i | -0.38 | CC1CCN(CCCCOc2ccc([N+](=O)[O-])cc2)CC1
i | -0.98 | CCOC(=O)C1CCCN(c2c(Nc3cccc(C)c3)c(=O)c2=O)C1 (stereo not given)
i | -0.93 | CC1=C(C(=O)OCC(C)C)C(c2cccc(F)c2)N2C(=O)C(C)SC2=N1 (stereo not given)
i | -1.17 | Cc1ccc(-c2cc(C(=O)NC3CCCCC3)no2)cc1
i | 3.16 | CCOC(=O)c1sc2nc(NC(=O)C3CCCCC3)sc2c1C
i | -0.94 | C=C(C)COc1ccc(-c2nc(N)ncc2-c2ccccc2OC)c(O)c1

# Next section, starting with the last four of the part before.
KCNQ2 block | KCNQ2 block baseline | Molecule
i | -0.93 | CC1=C(C(=O)OCC(C)C)C(c2cccc(F)c2)N2C(=O)C(C)SC2=N1 (stereo not given)
i | -1.17 | Cc1ccc(-c2cc(C(=O)NC3CCCCC3)no2)cc1
i | 3.16 | CCOC(=O)c1sc2nc(NC(=O)C3CCCCC3)sc2c1C
i | -0.94 | C=C(C)COc1ccc(-c2nc(N)ncc2-c2ccccc2OC)c(O)c1
i | 0.76 | CCNC(=O)NC(=O)C(C)Sc1nc2ccccc2n1CC(C)C (stereo not given)
i | 0.6 | CC(=O)N1CCN(C(=O)CC2OC(=O)c3ccccc32)CC1 (stereo not given)
i | 0.68 | O=C(Nc1nc2ccc(S(=O)(=O)N3CCCCC3)cc2s1)C1CCCO1 (stereo not given)
i | 1.68 | COc1ccc(/C(C)=N/N2C(=O)c3ccccc3NC2c2ccc(O)c(OC)c2)cc1 (stereo not given)
i | 0.41 | O=C(c1ccc(F)cc1)C1CCN(C(=O)Nc2ccccc2Cl)CC1
i | -0.01 | Cc1cc(/C=C(\C#N)C(=O)O)c(C)n1CC1CCCO1 (stereo not given)
i | 0.35 | CC(C)CC(=O)Nc1ccc(C(=O)COC(=O)C2=COCCO2)cc1
i | 0.62 | Cn1ncc(Cl)c1C(=O)Nc1cccnc1
i | -0.07 | Cc1nc2cc(C(F)(F)F)ccc2n1C1CCN(C(=O)N2CCOCC2)CC1
i | 0.3 | Cn1c(CO)cnc1-c1ccccc1
i | 0.8 | COc1ccc(CCNC(=O)c2c(O)c3ccccc3[nH]c2=O)cc1
i | 0.55 | CSc1ncnc2sc(C)c(C)c12
i | 1.37 | Cc1cc(NC(=O)CSCC(=O)N(C)Cc2ccc(F)cc2)no1
i | -1.18 | COc1cccc(OC)c1C(=O)Nc1cccc2c1CCCC2
i | -0.07 | CCc1ccc2oc(-c3cccc(NC(=O)c4cccnc4)c3)nc2c1
i | 0.35 | O=C1C2CCCN2C(c2ccccc2F)N1c1ccc(Cl)cc1 (stereo not given)
i | 0.13 | O=C(CCn1cccn1)N1CCCC(N2CCN(c3cccc(Cl)c3)CC2)C1 (stereo not given)
i | 4.37 | CCOC(=O)c1nn(-c2ccc(C)cc2)c(=O)cc1OCC(=O)Nc1cc(C)ccc1OC
i | 0.23 | O=C1CC(c2ccccc2)CC(O)=C1C=NCc1ccncc1 (stereo not given)
i | -0.15 | C/C(CC(C)C)=N\NS(=O)(=O)c1ccc(C)c([N+](=O)[O-])c1
i | -0.14 | COc1ccc(S(=O)(=O)N2CCCC(C(=O)O)C2)cc1 (stereo not given)
i | 1.37 | COc1ccc(CN2C(=O)C3C4C=CC(C4)C3C2=O)cc1 (stereo not given)
i | -0.64 | Cc1ccsc1C(=O)NC1CCCN(Cc2ccc(Cl)cc2)C1 (stereo not given)
i | -0.78&0.23 | Nc1ccc(C(=O)O)cc1
i | -0.36 | C#Cc1ccc(CN2CCN(Cc3ccsc3)C(CCO)C2)cc1 (stereo not given)

# 3 compounds drawn at random from the list so far:
KCNQ2 block | KCNQ2 block baseline | Molecule
i | -0.01 | Cc1cc(/C=C(\C#N)C(=O)O)c(C)n1CC1CCCO1 (stereo not given)
i | 0.6 | CC(=O)N1CCN(C(=O)CC2OC(=O)c3ccccc32)CC1 (stereo not given)
i | 1.37 | Cc1cc(NC(=O)CSCC(=O)N(C)Cc2ccc(F)cc2)no1

# Additional structures.
KCNQ2 block | KCNQ2 block baseline | Molecule
i | -0.25 | O=C(c1ccc(F)cc1)c1ccc(N2CCCC2)cc1
i | -1.4 | CCN(CC)/C(Sc1ccccc1)=C(\C(Cl)=C(Cl)Cl)[N+](=O)[O-]
i | 0.29 | COc1ccccc1N1CCN(S(=O)(=O)c2cccc3nsnc23)CC1
i | 0.41 | Cc1cccc(C(=O)Oc2ccc3ccc(O)cc3c2)c1
i | -1.45 | Cc1ccc(C(=O)Nc2nnn(C)n2)cc1
i | 1.73 | COc1ccccc1NS(=O)(=O)c1ccc(C(N)=O)cc1
i | 0.39 | O=C(/C(=C/O)N=Nc1cccc(C(F)(F)F)c1)c1ccccc1
i | 0.76 | CCN(CC)CCCNC(=O)c1oc2ccc(S(=O)(=O)N3CC(C)CC(C)C3)cc2c1C (stereo not given)
i | 1.2 | CCOc1ccccc1N(CC(=O)N1CCC(C(N)=O)CC1)S(=O)(=O)c1ccc(SC)cc1
i | -3.01 | Cc1ccc(-c2cc(C(=O)N3CCCC(C(F)(F)F)C3)c3ccccc3n2)o1 (stereo not given)
i | 0.37 | Cc1nnc(SCc2cc(=O)oc3ccc4ccccc4c23)n1Cc1ccccc1
i | 0.68 | CCOCCCNCc1cn(-c2ccc(F)cc2F)nc1-c1ccccc1C
i | 0.28 | COc1ccc(S(=O)(=O)N(CC(=O)O)c2ccc(C)cc2)cc1
i | -1.15 | O=C1CC(N2CCC(c3nc4ccccc4o3)CC2)C(=O)N1c1cc(Cl)cc(Cl)c1 (stereo not given)
i | 0.24 | N#Cc1c(N)n(-c2cccc(C(=O)O)c2)c2nc3ccccc3nc12
i | -0.16 | Cc1cccc(NC(=S)Nc2ccccn2)c1C
i | -0.05 | Cc1occc1C(=O)N1CCN(C(=O)C2CCCO2)CC1 (stereo not given)
i | 3.17 | c1ccc2c(c1)CSc1sccc1C2=C1CCNCC1
i | 0.28 | O=S(=O)(NCC1CC1)c1cc(Cl)cc(Cl)c1
i | 0.39 | Cc1cc(OCC(=O)NCc2cccnc2)c2c(C)cc(=O)oc2c1
i | -2.3 | CN(C)CCCN1C(=O)c2oc3ccc(F)cc3c(=O)c2C1c1cccnc1 (stereo not given)

# Compound activity (PubChem BioAssay)
